Source: PubChem BioAssay
Rango complex inh = qHTS Assay for Inhibitors of Rango (Ran-regulated importin-beta cargo) - Importin beta complex formation; Rango CFP/YFP FRET sensor + importin beta, 45 min; Potency, µM (titrated, usually from 92.2 µM), for the others: top-dose inhibition of complex formation; actives 0.031% (n = 340,000); AID 540263, 2011; active = rising FRET ratio curve, often small or poorly fitted; inconclusive = mostly compound fluorescence or quenching in the first reads; inactive = flat curves in all reads;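 also: potency is read from the fitted curve at half-maximal effect; 0% = DMSO wells and 100% = buffer wells lacking importin beta; nearly all actives have a fitted effect of over 15% in size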
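FRET biosensor (snurportin 1 IBB flanked by EYFP and cerulean), 50 nM, with compound 5 min, then 0.125 microM importin beta in PBS, 1 mM DTT, 0.02% Tween-20, 0.1% BSA. CFP/YFP ratio read after 45 min at room temperature; pre-read flags interference.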
GLA inh pH 4.5 = qHTS Assay for Inhibitors of Human alpha-Galactosidase at pH 4.5; purified enzyme, 4-MU-alpha-Gal fluorescence, pH 4.5; activity change, negative = inhibition, % at 105 µM; 230,000 tested, under 10 active; AID 1467, 2008; inconclusive = small, poorly fitted or top-dose-only inhibition, or a rising curve; inactive = flat fitted curve, though single readings scatter; no compound was filed as active;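 also: 0% = full activity with enzyme and -100% = basal without enzyme; dose as in the result columns while the protocol names 77 µM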
Target sequence (P06280 whole entry, looked up): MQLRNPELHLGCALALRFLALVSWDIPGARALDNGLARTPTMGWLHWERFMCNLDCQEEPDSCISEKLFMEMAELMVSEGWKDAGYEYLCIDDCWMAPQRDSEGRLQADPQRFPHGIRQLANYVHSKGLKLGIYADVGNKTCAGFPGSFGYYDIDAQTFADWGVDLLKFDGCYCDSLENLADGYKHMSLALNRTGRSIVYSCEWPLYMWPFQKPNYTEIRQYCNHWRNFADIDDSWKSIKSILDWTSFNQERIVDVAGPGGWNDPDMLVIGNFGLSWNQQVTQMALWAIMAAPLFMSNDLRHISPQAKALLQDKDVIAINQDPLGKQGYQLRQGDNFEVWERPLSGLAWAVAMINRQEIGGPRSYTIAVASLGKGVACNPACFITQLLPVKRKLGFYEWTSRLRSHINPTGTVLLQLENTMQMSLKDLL
miR-21 reporter = qHTS Assay for Modulators of miRNAs and/orActivators of miR-21. Potency, µM (series often up to 38.3 µM), without a hit: at the top dose reporter change, positive = more light. HeLa miR-21 FLuc reporter, luciferase, 48 h. 340,000 tested, under 10 active; active = well fitted rising curve with a large enough effect; inconclusive = small, poorly fitted or top-dose-only effect; inactive = no such curve, though single readings can be large or run the other way;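 also: % of control where 0% means no effect; miR-21 action dims this reporter so a rising signal means less miR-21 action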
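Luminescence from a firefly luciferase reporter carrying a miR-21 binding site downstream, stably expressed under a CMV promoter in HeLa cells that make miR-21 endogenously, reports miRNA modulation after 48 h compound exposure up to approximately 40uM final.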
Rango release inh = qHTS Assay for Inhibitors of RanGTP induced Rango (Ran-regulated importin-beta cargo) - Importin beta complex dissociation; Snurportin-1 (Homo sapiens) + GTP-binding nuclear protein Ran (Homo sapiens) + Importin …; Biochemical FRET Rango-importin beta, RanGTP-induced dissociation; Potency, µM (highest dose often 46.1 µM), without a hit: at the top dose activity change, negative = inhibition; actives 0.071% (n = 340,000); AID 540253, 2011; active means falling FRET ratio curve, often poorly fitted, with flat reads before Ran was added; inconclusive means other falling curves, or compound fluorescence or quenching; inactive means flat or rising ratio curve;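 also: potency is read from the fitted curve at half-maximal effect; % of control where 0% means no effect; nearly all actives have a fitted effect of over 45% in size; -100% = wells without RanGTP and RCC1; the record marks most hits as doubtful in a second field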
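Compounds preincubate 5 min with complex of recombinant Rango and importin beta in PBS with 1 mM DTT. Ran (0.6 uM) loaded with 2 mM GTP plus 0.2 uM RCC1 starts dissociation; FRET is recorded 45 min later.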
Active calls of the source: *; ? = inconclusive; . = no result given; & = joins results of further samples. An excerpt; the hit share may differ from the screen's.

SMILES | Rango complex inh | GLA inh pH 4.5 | miR-21 reporter | Rango release inh
CCC1(c2ccccc2)NC(=O)N(CC(=O)Nc2ccc(N3CCCC3)cc2C)C1=O (stereo not drawn) | 1.4% | . | . | 1%
Fc1ccccc1/C=N/Nc1cc(N2CCCCC2)ncn1 | 1.0% | . | . | 0%
CCCCC1SC(N)=NC1=O (stereo not drawn) | 4.1% | . | . | 3%
O=C(NC(=O)N1CCN(c2ccccc2F)CC1)c1ccccc1 | 0.3% | -7 | -23% | 7%
COc1ccc(C(=O)NC2CC2)cc1OC1CCN(C(C)CSC)CC1 (stereo not drawn) | ? | . | -2% | -17%
Cc1ccc(C2=Nc3ccccc3N=C(C(Cl)Cl)C2)cc1 | ? | 0 | -5% | ?
Cc1[nH]c2ccccc2c1C=NNC(=O)c1cc(-c2cccnc2)nc2ccccc12 | 0.4% | . | . | 23%
CC(=O)c1cc(C#N)c(SCc2ccc([N+](=O)[O-])cc2)nc1C | -1.1% | -1 | 4% | -4%
Cc1ccc(N(CC(=O)NC2CCCCC2)C(=O)CNC(=O)c2ccco2)cc1C | -2.1% | . | -8% | 4%
CN(c1ccc(O)cc1)c1nc(-c2cccs2)cs1 | -0.2% | 3 | 9% | -8%
COc1ccc(NS(=O)(=O)c2cc(NC(=O)CCc3ccc(OC)c(OC)c3)ccc2N2CCOCC2)cc1 | -1.5% | . | . | -5%
O=C(c1cc([N+](=O)[O-])ccc1N1CCCCC1)N1CCc2ccccc21 | ? | -14 | 16% | -7%
O=C(Nc1ccc(Cl)c(C(F)(F)F)c1)N1CCCC(O)C1 (stereo not drawn) | 3.6% | -6 | -11% | 1%
COc1cc(OC)c(C2SCCN2S(=O)(=O)c2ccc(F)cc2)cc1OC (stereo not drawn) | -0.5% | 0 | -1% | -2%
Cc1ccc(NC(=O)c2ccc3[nH]c(=O)c(=O)[nH]c3c2)nc1 | 6.4% | . | -6% | -24%
Cc1nn(CC(=O)N2CC(=O)Nc3ccccc32)c(C)c1[N+](=O)[O-] | 5.5% | 10 | 5% | -21%
CCOc1cccc(=O)c2c(C)oc(C)c12 | 2.2% | 2 | -3% | ?
O=C(CCN1C(=O)c2ccccc2C1=O)Nc1cccc(S(=O)(=O)N2CCCCC2)c1 | -1.2% | -10 | 0% | -3%
Cn1c(Cn2cnc3ccccc32)nc2ccccc21 | -1.6% | 3 | -1% | 7%
CCCN(CC(=O)Nc1ccc(Cl)cc1Cl)C(=O)/C=C/c1ccco1 | 0.4% | -6 | -13% | -5%
Cc1nc2ccc([N+](=O)[O-])cc2c(=O)n1Cc1ccccc1Br | -1.6% | . | -2% | -3%
CCS(=O)(=O)N1Cc2ccccc2CC1C(=O)Nc1ccc(F)c(F)c1 (stereo not drawn) | 2.3% | . | -46% | -2%
O=C(NC1CCCC1)C(c1cccs1)N(CC1CCCO1)C(=O)Cc1cccs1 (stereo not drawn) | -1.7% | 7 | -3% | -13%
COC(=O)c1cc2occc2n1CC(=O)Nc1cc(OC)cc(OC)c1 | 2.4% | -1 | -12% | -3%
COc1ccc(CNC(=O)COC(=O)c2ccc(Br)cc2)cc1 | 3.3% | -5 | 1% | 9%
COc1cccc(NC(=O)N2C3CCCC2CC(NC(=O)C(C)(C)C)C3)c1 (stereo not drawn) | -4.3% | . | -2% | 21%
Cc1ccc2nc(Cl)nc(-c3ccccc3)c2c1 | 2.2% | 1 | 0% | 15%
O=C(/C=C/c1ccc(Cl)c(Cl)c1)NCCCn1ccnc1 | -4.1% | . | -20% | 4%
C[C@@H](NC(=O)CN1C(=O)c2ccccc2S1(=O)=O)c1ccccc1 | 0.0% | . | -3% | -1%
O=C(CSc1nc2ccc(NC(=O)C3CCCCC3)cc2s1)NCC1CCCO1 (stereo not drawn) | 5.2% | 3 | -42% | 2%
Cc1ccc(N=Cc2c(O)c3ccccc3oc2=O)cc1F | 2.4% | . | -3% | 0%
S=C(NCCCc1ccccc1)NCc1ccccc1 | 2.1% | . | -24% | 1%
COc1ccc(S(=O)(=O)N2CCCCC2)cc1NC(=O)CSc1ncnc2ccccc12 | -0.8% | 2 | -4% | 6%
Cc1ccsc1-c1cc(C(=O)O)c2c(ccc3ccccc32)n1 | -2.8% | . | -26% | 1%
COC(=O)C1=C(Nc2ccc(OC)cc2)C=C(C)C(C(=O)OC)C1c1ccc(C)cc1 (stereo not drawn) | ? | -4 | 8% | ?
CCOc1ccccc1N(CC(=O)N/N=C(\C)c1cccc(Br)c1)S(C)(=O)=O | 1.8% | 0 | -15% | 0%
CN(CCc1ccccn1)C(=O)CCC1CCCN(C(=O)c2ccsc2)C1 (stereo not drawn) | 0.2% | 5 | 5% | -2%
C=C(C)C(=O)Nc1cccc(C2=NOC3(C2)C[C@H](C(N)=O)N(C(=O)/C=C/C)C3)c1 (stereo partly drawn) | -4.2% | -2 | 1% | 0%
CCOc1cc(NC(=S)NCCCN2CCOCC2)c(OCC)cc1NC(=O)c1ccco1 | -0.2% | . | -3% | 13%
COc1ccccc1C(=O)NCCNc1ccc([N+](=O)[O-])cc1Cl | -3.9% | . | -32% | -16%
Nc1nnc(Sc2ccc(Cl)cc2[N+](=O)[O-])s1 | 3.0% | 1 | -3% | -3%
C=CCn1c(SCCCC)nc(O)cc1=O | -3.8%&3.5% | 2&-5 | -2%&2% | 8%&-12%
CCOC(=O)N1CCN(c2c(N3CCN(c4ccccc4F)CC3)c(=O)c2=O)CC1 | 1.2% | -15 | 0% | 7%
O=C(NN=Cc1cccc2ccccc12)C1CC1 | 0.3% | . | . | -10%
O=C(Nc1cccn(Cc2c(Cl)cccc2Cl)c1=O)c1ccccc1Cl | -1.2% | 3 | -5% | -12%
Cc1ccccc1Cn1nc(C)c(NC(=O)c2ccccc2)c1C | 1.2% | 4 | 2% | 4%
Cc1ccc2oc(=O)cc(CN3CCCCC3)c2c1 | 0.4% | . | 0% | 13%
CN(CC(=O)Nc1cccc(F)c1)C(=O)c1ccc(N2CCCCCC2)c([N+](=O)[O-])c1 | 4.5% | . | . | 1%
CCOc1cccc(N2C(=O)CC(N3CCN(c4nc5ccccc5s4)CC3)C2=O)c1 (stereo not drawn) | -1.8% | -1 | -5% | -11%
COc1ccc(-c2nsc3c(N4CCCCC4)ncnc23)cc1 | -2.6% | -19 | -24% | 0%

Next part.
SMILES | Rango complex inh | GLA inh pH 4.5 | miR-21 reporter | Rango release inh
CC(C)NC(=O)NC(=O)COC(=O)c1ccccc1O | 0.4% | -25 | 0% | -7%
COc1cc(O)c(C(CC(=O)N2CCCCC2)c2ccc(N(C)C)cc2)c(OC)c1 (stereo not drawn) | 4.7% | 3 | 7% | 0%
CCc1ccc(OCC(=O)N(C)C)c(Br)c1 | 15% | -1 | -6% | 1%
O=C(c1ccc2c(c1)OCO2)N(c1ccc(Cl)cc1)C1C=CS(=O)(=O)C1 (stereo not drawn) | 0.2% | -7 | -8% | -4%
CN(C(=O)COC(=O)c1ccc(Cl)s1)C1(C#N)CCCCC1 | 3.5% | . | . | -10%
Cc1nn(-c2ccc(F)cc2)c(C)c1NS(=O)(=O)c1ccc(Cl)cc1 | -0.7% | -8 | 2% | ?
COc1ccc(CCNC(=O)CCNS(=O)(=O)c2cc(Br)cnc2N)cc1OC | -2.7% | . | 6% | 7%
Cc1nc(N)[nH]c(=O)c1CC(=O)OCCCl | 1.4% | -10 | -10% | -4%
O=C(CN1C(=O)C2C3C=CC(C4CC34)C2C1=O)OCC(=O)c1ccccc1 (stereo not drawn) | -0.6% | 10 | 1% | 11%
CC(C)c1ncc(C(O)c2ccccc2)n1C (stereo not drawn) | -1.2% | -2 | -4% | -3%
O=S(=O)(c1ccc(NC(=S)NN=Cc2ccccc2O)cc1)N1CCCCC1 | ? | . | . | ?
Cc1ccccc1C(=O)Oc1ccccc1N1C(=O)C2CC=CCC2C1=O (stereo not drawn) | 1.8% | -7 | -6% | -4%
Cc1c(C(c2ccc(F)cc2)c2c(C)n(C)n(-c3ccccc3)c2=O)c(=O)n(-c2ccccc2)n1C | -0.1% | . | 2% | -2%
O=C(Cn1cccc1)N1CCN(c2ccc(F)cc2)CC1 | -1.2% | -6 | 0% | -5%
Cc1nn(-c2ccccc2)c2c1C1(C(=O)N(C(C)C)c3ccccc31)C(C#N)=C(N)O2 (stereo not drawn) | 4.3% | -4 | 7% | -5%
CCn1c(CNc2ccc(C(=O)O)cc2)nc2ccccc21 | -2.7% | 15 | -4% | 0%
CC1(C(=O)Nc2nc3ccc(S(C)(=O)=O)cc3s2)CC1(Cl)Cl (stereo not drawn) | -4.7% | . | . | 0%
c1ccc(-c2nc(-c3ccccn3)nc(-c3ccccn3)n2)nc1 | 0.5% | 1 | 18% | -9%
COc1ccc(CCNC(=O)CNS(=O)(=O)c2ccc(N(C)C)c([N+](=O)[O-])c2)cc1OC | 0.2% | . | -7% | -8%
COC(=O)/C=c1/s/c(=C(\C#N)C(=O)NCc2ccco2)n(-c2ccccc2)c1=O | ? | 1 | 0% | -1%
CC(=O)Nc1ccccc1C(=O)N1CCN(Cc2ccc3c(c2)OCO3)CC1 | -1.3% | . | 0% | -5%
COc1ccc2ccccc2c1CN1CCN(Cc2ccccc2)CC1 | 0.1% | -4 | 0% | 14%
NC(=O)c1c(NC(=O)CSc2nnc(-c3ccco3)n2-c2ccccc2)sc2c1CCC2 | 0.5% | 0 | 17% | 0%
CN1CCN(S(=O)(=O)c2ccc(NC(=O)c3csc4ccccc34)cc2)CC1 | ? | 2 | -28% | 0%
Cc1ccc(Nc2ccc(C(=O)O)cc2N)cc1 | 1.6% | -4 | -40% | -4%
CCc1noc(C)c1C(=O)Nc1cc(S(=O)(=O)N(CC)CC)ccc1N1CCOCC1 | 0.9% | . | . | -18%
CC(C)OC(=O)c1c2c(n3ccccc13)C(=O)c1ccccc1C2=O | 19% | -6 | -1% | ?
O=C(CN1C(=O)NC2(CCCCC2)C1=O)Nc1nc2c(F)cc(F)cc2s1 | -0.4% | . | . | -16%
CCN(CC)C(=O)c1sc(NC(=O)Cc2ccc(OC)cc2)c(C#N)c1C | -1.7% | 0 | -4% | -10%
COCCN(CC(=O)Nc1cccc(C)c1C)C(=O)c1oc2c(Cl)cccc2c1C | -2.7% | . | . | -9%

Some of the entries so far, with values ahead of the structure:
Rango complex inh | GLA inh pH 4.5 | miR-21 reporter | Rango release inh | Structure
0.1% | -4 | 0% | 14% | COc1ccc2ccccc2c1CN1CCN(Cc2ccccc2)CC1
0.5% | 0 | 17% | 0% | NC(=O)c1c(NC(=O)CSc2nnc(-c3ccco3)n2-c2ccccc2)sc2c1CCC2
? | 2 | -28% | 0% | CN1CCN(S(=O)(=O)c2ccc(NC(=O)c3csc4ccccc34)cc2)CC1
1.6% | -4 | -40% | -4% | Cc1ccc(Nc2ccc(C(=O)O)cc2N)cc1
0.9% | . | . | -18% | CCc1noc(C)c1C(=O)Nc1cc(S(=O)(=O)N(CC)CC)ccc1N1CCOCC1
19% | -6 | -1% | ? | CC(C)OC(=O)c1c2c(n3ccccc13)C(=O)c1ccccc1C2=O
-0.4% | . | . | -16% | O=C(CN1C(=O)NC2(CCCCC2)C1=O)Nc1nc2c(F)cc(F)cc2s1

(listing goes on)
SMILES | Rango complex inh | GLA inh pH 4.5 | miR-21 reporter | Rango release inh
O=[N+]([O-])c1ccc(NN=Cc2ccco2)nc1 | ? | . | . | -27%
COC(=O)c1ccccc1NC(=O)C(C)n1nc(C)c2c(C)n(-c3ccccc3)nc2c1=O (stereo not drawn) | 0.3% | . | 4% | 2%
Cc1ccc(NS(=O)(=O)c2cccc(C(=O)Nc3cc(C)on3)c2)cc1 | -0.1% | 1 | 13% | 0%
COc1cc2c(cc1NC(=O)COC(=O)c1ccccc1)oc1ccccc12 | . | 6 | 0% | .
COc1ccc(CCNC(=O)COc2ccc(S(=O)(=O)NCC(C)C)cc2Cl)cc1OC | 5.2% | 4 | -2% | -19%
